Compound activity as filed in PubChem.
Rango dissoc inh = inhibition of RanGTP-driven Rango-importin beta dissociation; Potency, µM (doses to about 46.1 µM), inactives show top-dose activity change, negative = inhibition; Biochemical FRET Rango-importin beta, RanGTP-induced dissociation; 340,000 compounds, 0.071% hits; O95149+P62826; AID 540253; active means falling FRET ratio curve, often poorly fitted, with flat reads before Ran was added; inconclusive means other falling curves, or compound fluorescence or quenching; inactive means flat or rising ratio curve;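 note: potency is the fitted concentration of half-maximal effect; % of control where 0% means no effect; nearly all actives have a fitted effect of over 45% in size; -100% = wells without RanGTP and RCC1; the record marks most hits as doubtful in a second field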
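Compounds preincubate 5 min with complex of recombinant Rango and importin beta in PBS with 1 mM DTT. Ran (0.6 uM) loaded with 2 mM GTP plus 0.2 uM RCC1 starts dissociation; FRET is recorded 45 min later.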
GLA inh pH 4.5 = inhibitors of human alpha-galactosidase A at pH 4.5; P06280; purified enzyme, 4-MU-alpha-Gal fluorescence, pH 4.5; activity change, negative = inhibition, % at 105 µM; 230,000 tested, under 10 active; AID 1467; inconclusive = small, poorly fitted or top-dose-only inhibition, or a rising curve; inactive = flat fitted curve, though single readings scatter; no compound was filed as active;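 note: 0% = full activity with enzyme and -100% = basal without enzyme; dose as in the result columns while the protocol names 77 µM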
Rango complex inh = inhibitors of Rango-importin beta complex formation. Rango CFP/YFP FRET sensor + importin beta, 45 min. Potency, µM (top dose mostly 92.2 µM), without a hit: at the top dose inhibition of complex formation. 340,000 compounds, 0.031% hits. AID 540263; active = rising FRET ratio curve, often small or poorly fitted; inconclusive = mostly compound fluorescence or quenching in the first reads; inactive = flat curves in all reads;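 note: potency is the fitted concentration of half-maximal effect; 0% = DMSO wells and 100% = buffer wells lacking importin beta; nearly all actives have a fitted effect of over 15% in size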
Target sequence (Q14974 whole entry, looked up): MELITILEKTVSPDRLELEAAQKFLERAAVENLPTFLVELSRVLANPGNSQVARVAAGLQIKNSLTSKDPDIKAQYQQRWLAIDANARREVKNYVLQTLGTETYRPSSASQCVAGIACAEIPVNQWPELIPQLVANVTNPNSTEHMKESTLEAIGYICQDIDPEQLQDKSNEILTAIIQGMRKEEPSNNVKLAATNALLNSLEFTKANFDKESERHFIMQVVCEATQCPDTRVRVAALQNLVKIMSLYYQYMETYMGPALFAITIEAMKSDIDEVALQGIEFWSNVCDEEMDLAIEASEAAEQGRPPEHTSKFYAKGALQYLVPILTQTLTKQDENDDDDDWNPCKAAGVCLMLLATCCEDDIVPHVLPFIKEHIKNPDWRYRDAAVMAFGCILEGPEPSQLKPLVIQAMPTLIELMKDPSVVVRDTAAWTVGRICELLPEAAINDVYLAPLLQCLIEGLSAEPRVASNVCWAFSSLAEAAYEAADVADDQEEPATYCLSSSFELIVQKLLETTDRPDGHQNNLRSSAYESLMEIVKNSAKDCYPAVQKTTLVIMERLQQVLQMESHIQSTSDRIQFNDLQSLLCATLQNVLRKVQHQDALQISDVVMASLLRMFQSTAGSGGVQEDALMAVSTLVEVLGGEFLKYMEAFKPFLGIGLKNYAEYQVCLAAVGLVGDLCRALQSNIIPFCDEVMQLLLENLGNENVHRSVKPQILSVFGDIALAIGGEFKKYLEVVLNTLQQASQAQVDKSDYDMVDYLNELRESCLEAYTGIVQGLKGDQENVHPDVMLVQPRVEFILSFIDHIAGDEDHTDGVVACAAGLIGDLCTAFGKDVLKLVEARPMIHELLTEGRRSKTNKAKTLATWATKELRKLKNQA
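Inhibition scored from the CFP 486 nm/YFP 530 nm FRET ratio 45 min after adding 0.125 microM importin beta to 50 nM Rango biosensor preincubated 5 min with compound (room temperature, PBS with DTT, Tween-20, BSA). No-importin wells as positive control.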
miR-21 reporter = miR-21 reporter, rising signal; HeLa miR-21 FLuc reporter, luciferase, 48 h; Potency, µM (top dose mostly 38.3 µM), for inactives: top-dose reporter change, positive = more light; 340,000 tested, under 10 active; active = well fitted rising curve with a large enough effect; inconclusive = small, poorly fitted or top-dose-only effect; inactive = no such curve, though single readings can be large or run the other way;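 note: % of control where 0% means no effect; miR-21 action dims this reporter so a rising signal means less miR-21 action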
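Using DMEM plus 10% FBS, HeLa miR-21-FLuc cells are incubated with test compounds (final up to about 40uM) for 48 hours; firefly luciferase signal is then imaged following reagent-mediated lysis.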
An asterisk follows results filed as active; ? = inconclusive; nt = no result given; & = joins results of further samples. These rows are one share of the data, so the mix of outcomes need not match the whole.

SMILES | Rango dissoc inh | GLA inh pH 4.5 | Rango complex inh | miR-21 reporter
Cc1cc(Cl)cc(C)c1OCCOCCNCc1ccccc1 | 3.9% | nt | 0.4% | -0.5%
CCc1noc(C)c1C(=O)OCC(=O)Nc1nc(-c2ccc(F)c(F)c2)cs1 | -4.5% | nt | -4.3% | nt
Cc1ccc(-n2c(=O)c3sccc3n(CC(=O)NCc3ccco3)c2=O)cc1 | 10.3% | -17.9 | -4.4% | -0.1%
COCCCNCCCCOc1c(Cl)cc(C)cc1Br | 3.7% | 0.7 | 6.1% | -2.0%
O=C1CCCCCN1C(=O)c1ccc(C(=O)N2CCCCCC2=O)cc1 | -9.0% | -3.7 | 3.5% | -7.5%
CC(C)n1c(C(=O)OCC(=O)NCc2ccc3c(c2)OCO3)cc2sccc21 | -8.9% | -14.0 | -1.8% | 15.5%
CC(=O)Nc1cccc(/C(C)=N/NC(=O)c2cccs2)c1 | -8.4% | -2.9 | 2.6% | -58.9%
CCOC(=O)C1=C(C)OC(N)=C(C#N)C1c1ccc(OC)c(CSc2ccccn2)c1 (centres undefined) | -18.3% | -17.4 | -0.9% | -11.2%
COc1ccccc1CNC(=O)c1cc(C(C)=O)c[nH]1 | 0.0% | nt | 0.7% | 1.3%
O=C(O)c1ccc2c(c1)c1c3n2CCNC3CCC1 (centres undefined) | -7.9% | nt | 1.4% | -0.1%
COc1ccc(OC)c(-c2cc(C(=O)N/N=C/c3cc(OC)c(OC)cc3OC)c3ccccc3n2)c1 | ? | nt | ? | nt
CC1=NN(c2ccc(Cl)cc2)C(=O)C1C(c1ccccc1O)c1c(C)[nH]n(-c2ccc(Cl)cc2)c1=O (centres undefined) | -10.0% | -12.5 | 4.1% | 8.7%
CC(=O)Nc1ccc(NC(=O)c2ccc3c(c2)CCN3S(C)(=O)=O)cc1 | 5.0% | nt | 14.4% | -2.3%
CC(C(=O)N1CCN(Cc2ccc3c(c2)OCO3)CC1)n1cc([N+](=O)[O-])cn1 (centres undefined) | 23.3% | nt | -4.3% | -1.2%
CCN1C(=O)N[C@H](c2ccc(Br)cc2)C(C(=O)OC)=C1C | 1.3% | -6.0 | 2.2% | nt
CC(C)(C)c1ccc(OCc2ccc(C(=O)NCc3cccnc3)o2)cc1 | 0.3% | 9.9 | -1.2% | -10.0%
NS(=O)(=O)c1cc(C(=O)N2CCc3ccccc32)c(Cl)cc1Cl | 0.6% | 2.0 | -0.2% | 3.5%
Cc1ccc(C(=O)Nc2ccc(Oc3ccc(C(=O)O)c(C(=O)O)c3)cc2)cc1C | 4.1% | 4.9 | 2.1% | 9.3%
COc1cccc(CN2CCC(CO)(CC3CCCCO3)CC2)c1 (centres undefined) | 0.4% | -2.0 | 1.0% | -2.7%
CCc1cc(S(N)(=O)=O)cc(CC)c1NC(C)=O | 3.5% | -8.2 | 3.6% | -9.5%
CCC1CCC/C1=N\NC(=O)CCC(=O)Nc1ccccc1Cl (centres undefined) | -7.1% | -11.7 | 10.5% | -1.0%
CN1CCN(C(=O)C2CCCN(c3ncnc4c3nc3n4CCCCC3)C2)CC1 (centres undefined) | 3.8% | nt | 1.7% | -6.8%
NC(=O)C1CCCN(CCc2ccccc2)C1 (centres undefined) | -3.8% | 1.6 | 0.3% | 2.3%
CCOC(=O)N1CCC(NC(=O)c2ccccc2C(=O)O)CC1 | 5.2% | -5.3 | -0.2% | -0.7%
Cc1ccc(NC(=S)N(Cc2ccco2)C(C)c2cccs2)c(Cl)c1 (centres undefined) | -0.1% | 2.1 | -4.7% | 3.8%

Rewritten field by field: part of the list above.
CCc1noc(C)c1C(=O)OCC(=O)Nc1nc(-c2ccc(F)c(F)c2)cs1
  Rango dissoc inh: -4.5%; GLA inh pH 4.5: nt; Rango complex inh: -4.3%; miR-21 reporter: nt

Cc1ccc(-n2c(=O)c3sccc3n(CC(=O)NCc3ccco3)c2=O)cc1
  Rango dissoc inh: 10.3%; GLA inh pH 4.5: -17.9; Rango complex inh: -4.4%; miR-21 reporter: -0.1%

COCCCNCCCCOc1c(Cl)cc(C)cc1Br
  Rango dissoc inh: 3.7%; GLA inh pH 4.5: 0.7; Rango complex inh: 6.1%; miR-21 reporter: -2.0%

Continuation:
SMILES | Rango dissoc inh | GLA inh pH 4.5 | Rango complex inh | miR-21 reporter
CC(NC(=O)C1CCCN(S(=O)(=O)c2cccc3nonc23)C1)c1ccccc1 (centres undefined) | -11.8% | 4.5 | ? | -1.6%
Cc1ccc(S(=O)(=O)NCc2cccnc2)cc1C(=O)N1CCCC1 | 11.9% | nt | 1.2% | 0.8%
O=C(Nc1ccc(S(=O)(=O)N2CCOCC2)cc1)c1ccc2c(c1)S(=O)(=O)c1ccccc1C2=O | 1.1% | 3.9 | -3.4% | -0.9%
COc1ccc(OC)c(-n2c(-c3cnccn3)n[nH]c2=S)c1 | 0.2% | -7.2 | -0.5% | 3.9%
O=C(Nc1ccccc1C(=O)NCc1cccnc1)c1cccc([N+](=O)[O-])c1 | -21.9% | 7.1 | 4.1% | -7.8%
C=CCSc1nnc(NC(=O)c2ccc(NC(C)=O)cc2)s1 | -7.1% | -13.8 | -2.4% | -32.2%
Nc1ccc(-c2nnn(Cc3ccccc3F)n2)cc1 | -7.1% | nt | 0.5% | -39.6%
CC(C)(C)S(=O)N1Cc2cc(=O)n(Cc3ccccc3)c(CCO)c2[C@H]1CCO (some centres undefined) | 12.8% | nt | 0.0% | nt
C/C(=N/NC(=O)CC1N=C(Cc2ccccc2)NNC1=O)c1cccnc1 (centres undefined) | -2.5% | -5.0 | -3.2% | -12.4%
Cc1ccccc1-c1nc2sc(C)c(C)c2c(=O)o1 | -2.0% | nt | 5.1% | -29.9%
CCN(CC1CCCN(CCc2cccc(F)c2)C1)C(=O)c1cc(C)oc1C (centres undefined) | -21.7% | nt | -3.3% | -8.5%
COc1cc(C(=O)O)ccc1OCC(=O)N1CCOCC1 | 1.0% | 3.0 | -1.1% | 0.1%
CNCCCOc1ccc(Cl)cc1C(C)(C)C | -16.2% | -1.9 | 3.2% | ?
O=C(Cn1ncc2c3ccccc3n(Cc3ccccc3)c2c1=O)N1CCN(c2ccccn2)CC1 | -8.5% | nt | -1.9% | 9.1%
COc1ccccc1C(=O)Nc1cc(Cl)ccc1-n1cncn1 | -0.2% | nt | 3.0% | 0.4%
COc1ccc(S(=O)(=O)Nc2ccc3oc(C)c(C(=O)O)c3c2)cc1 | 16.7% | 8.8 | 0.4% | 1.8%
COC(=O)c1cc(S(=O)(=O)N2CCN(c3cccc(Cl)c3)CC2)c[nH]1 | ? | nt | 0.0% | -14.7%
COc1ccc(NC(=O)N(C)C[C@H]2Oc3ccc(NC(=O)CCN4CCOCC4)cc3C(=O)N([C@@H](C)CO)C[C@H]2C)cc1 | 1.6% | nt | -3.4% | nt
COc1cc(C(=O)N(C)c2nnc(-c3cccnc3)s2)cc(OC)c1OC | nt | -4.2 | nt | -3.8%
O=C(O)CCN1c2ccccc2Sc2ccccc21 | -6.3% | -1.2 | 0.0% | -3.6%
Cc1cc(NCCCO)n2c(nc3ccccc32)c1C#N | -21.4% | ? | ? | -8.2%
COC(=O)c1ccc(C(=O)Nc2ccc3c(c2)C(=O)NC3=O)cc1 | 11.5% | nt | -3.7% | -4.1%
CC(=NNC(=S)Nc1cccc(Cl)c1)c1ccccn1 | 8.9% | nt | 2.4% | nt
CC(O)C(NS(=O)(=O)c1ccc(Cl)cc1)C(=O)OCC(=O)c1c[nH]c2ccccc12 (centres undefined) | 1.0% | -0.2 | 0.5% | 21.3%
CO[C@@]12[C@H](COC(N)=O)C3=C(C(=O)C(C)=C(N)C3=O)N1C[C@@H]1N[C@@H]12 | -7.7% | nt | 1.1% | nt
SMILES | Rango dissoc inh | GLA inh pH 4.5 | Rango complex inh | miR-21 reporter
CC(C)(C)C(=O)N1CCN(c2nc3ccccc3s2)CC1 | -9.7% | nt | 0.3% | -45.1%
O=C(Nc1ccccc1F)NC1CCCCCCC1 | 13.0% | nt | 2.5% | -42.6%
CCN(CC(=O)Nc1c(F)cccc1F)C(=O)c1ccc(S(=O)(=O)NCc2ccco2)cc1 | -1.4% | nt | -3.2% | nt
CCCC/C(=N\NC(=O)c1ccc(Br)o1)c1ccccc1 | 13.6% | 1.6 | 0.2% | -46.1%
CCCCN(C(=O)c1cccc(S(=O)(=O)N(C)c2ccc(C)cc2)c1)c1c(N)n(CC(C)C)c(=O)[nH]c1=O | -0.2% | nt | -2.7% | nt
O=C(O)CC1(CC(=O)Nc2ccccc2N2CCOCC2)CCCC1 | 1.0% | -18.2 | 0.9% | -0.7%
COc1cccc(C(=O)NCCN2CCN(c3ccc(Cl)cc3)CC2)c1 | 0.6% | -2.8 | 0.1% | nt
Cc1ccc(SCC(=O)OCC(=O)NC2CCCCCCC2)cc1 | -10.8% | nt | -3.7% | nt
Cc1ccc(NC(=O)Cn2cc(C(F)(F)F)cc(Cl)c2=O)cc1Cl | -7.3% | -1.0 | 2.3% | 1.7%
COc1cnc(-c2ccccc2)nc1Oc1cccc(C)c1 | 2.6% | -2.0 | 0.1% | -2.3%
O=C(c1ccco1)N1CCN(C(=O)c2ccco2)C1=S | -14.7% | nt | 3.5% | nt
CCc1c(C(=O)NC2CCCCC2)[nH]c(C)c1C(C)=O | 3.5% | -5.9 | 2.9% | -1.8%
CSc1nc(N)n2nc(-c3ccccc3)cc2n1 | -4.6% | 0.6 | -0.3% | -43.7%
CC(=O)Nc1ccc(NC(=O)c2cc(-c3ccc(C)cc3O)n[nH]2)cc1 | -12.7% | nt | -1.3% | -18.5%
O=C(Nc1ccc2oc(Cc3ccc(Cl)cc3)nc2c1)c1cccnc1 | 0.3% | -8.3 | -3.5% | 11.9%
Cc1cc(C(=O)Nc2sc(C)c(-c3ccc(F)cc3)c2C(N)=O)no1 | 20.8% | 1.1 | -2.2% | -46.0%
CCC(C)NS(=O)(=O)c1ccc(NC(=O)c2cccs2)cc1 (centres undefined) | -0.6% | 6.1 | -0.6% | -13.6%
Nc1cccc2c1nnn2C1OC(CO)C(O)C(O)C1O (centres undefined) | nt | -13.1 | nt | -6.7%
Cc1c(C(=O)N/N=C/c2cccs2)nc2ccccn12 | 21.6% | 9.6 | 0.0% | -3.2%
CNC(=O)Nc1cccc(-c2ccnc(C)n2)c1 | ? | 2.3 | 2.4% | -1.0%
CN(C)/C=N/c1c(C(=O)NCc2ccccc2)nnn1Cc1ccccc1 | 2.7% | 1.5 | -3.8% | -3.7%
CC(C)(C)c1cc(CCC(=O)NCc2ccccn2)cc(C(C)(C)C)c1O | 2.5% | nt | -3.9% | -7.5%
COC(=O)c1cccc(COC(=O)CNC(=O)c2ccco2)c1 | -3.7% | 2.6 | -1.1% | 1.0%
CCOC(=O)c1c(NC(=O)C2CCCCC2)sc2c1CCN(CC)C2 | 6.0% | nt | -3.4% | 7.9%
Cc1c(NC(=O)C2CCCN2S(=O)(=O)c2ccc(Cl)cc2)c(=O)n(-c2ccccc2)n1C (centres undefined) | -16.8% | 5.9 | 5.7% | -1.4%
SMILES | Rango dissoc inh | GLA inh pH 4.5 | Rango complex inh | miR-21 reporter
O=Cc1cc(N=Nc2ccccc2Cl)ccc1O | -3.8% | -6.0 | ? | -7.4%
CCN(CC)C(=O)c1sc2nc(-c3ccccc3)ccc2c1N | ? | -8.8 | ? | -75.7%
CC(=O)c1ccc(NS(=O)(=O)c2ccc(-c3cnc(C4CC4)o3)cc2)cc1 | 11.4% | nt | 0.1% | -8.2%&-7.7%
COc1cc(-c2nc(-c3ccccc3)c(-c3cccs3)[nH]2)cc(OC)c1OC | -9.0% | -5.0 | -0.4% | 19.8%
CNC(=O)C1=C(C)NC(=S)NC1c1cc2c(cc1OC)CCCC2 (centres undefined) | 4.4% | 5.0 | ? | 0.0%
CC1CC(C)CN(S(=O)(=O)c2ccccc2[N+](=O)[O-])C1 (centres undefined) | -8.5% | -2.7 | -0.6% | -1.7%
COc1ccccc1C(=O)Nc1ccccc1N1CCCCC1 | 2.5% | nt | 4.9% | 10.4%
O=C(c1ccc(Cl)c(S(=O)(=O)N2CCCC2)c1)N1CCN(c2ccccn2)CC1 | -5.5% | 3.8 | -1.7% | 16.0%
CC1CC(=O)N(CC(=O)Nc2cccc(Cl)c2)c2ccccc2S1(=O)=O (centres undefined) | -6.5% | nt | -0.6% | -4.9%
